High-throughput results (PubChem)
CtBP-E1A blk: qHTS Assay for Inhibitors of the CtBP/E1A Interaction. CtBP / adenovirus E1A interaction (AlphaScreen). AlphaScreen GST-E1A/His-CtBP binding, 1536-well; hits give low values; control for the full effect not named in the record. activity change, % (no concentration beside the values). 340,000 tested, 0.49% active. AID 651724, 2012; in the data active means activity change below about -65%; inconclusive means about -30% to -65%; inactive means above about -30%; note: % is set by controls: 0 for no effect and ±100 for the full control effect; compound concentration not given in the record
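Protein mix (5X: 125 nM each GST-E1A, His-CtBP) was incubated with pinned compound 2 h at 37 deg C in dark, in 50 mM Tris pH 8.0 buffer with 300 mM NaCl. Glutathione donor and nickel acceptor beads followed; AlphaScreen signal read after 1 h.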
D2 potentiator: Beta-Arrestin HTS for Positive Allosteric Modulators of the Human D2 Dopamine Receptor: Potentiators | DiscoveRx D2 beta-arrestin cells, luminescence, 90 min; 100% = 57 uM dopamine signal | D(2) dopamine receptor (Homo sapiens), P14416 | 360,000 tested, 0.23% active | potentiation, % (test concentration not listed); active = potentiation of 50% or more; inconclusive = 30% to 50%; inactive = 30% or less;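 note: compound concentration not given in the record; tested on top of an EC20 dose of dopamine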
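PathHunter D2 cells, attached overnight at 37 deg C, received compound in DMSO plus dopamine at EC20 (50 nM final) for 90 min at 37 deg C. Beta-arrestin recruitment was read as luminescence after 1 h with detection reagent at ambient temperature.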
TRPML1 agonist: qHTS for Agonists of the Human Mucolipin Transient Receptor Potential 1 (TRPML1) | Mucolipin-1 (Homo sapiens), Q9GZU1 | TRPML1-expressing cells, Ca2+ dye fluorescence, FDSS; host cell line not named in the record; reference of the full effect not given here | activation, % (test concentration not listed) | 410,000 tested, 0.12% active; in the data active = activation above about 50%; inconclusive = about 30% to 50%; inactive = below about 30%; note: 0% is about no effect; the text of the record puts the active cut at 80%
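Tet-induced TRPML1-DL cells, 1,500 per well, cultured overnight, were loaded with a no-wash Ca2+ dye for 45–90 min. Calcium fluorescence was recorded on the FDSS for 110 s after compound addition, before the EC80 agonist (4 uM 54-4) was added.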
PINK1 modulator: A Quantitative High throughput Screen to Identify Chemical Modulators of PINK1 Expression; PINK1 immunofluorescence, high-content cytometry, 24 h; Potency, µM (series often up to 76.6 µM), inactives show top-dose activation (PINK1 increase), hits mostly activators; 410,000 tested, 0.2% active; AID 624263, 2012; active = well fitted activation curve with a large enough effect; inconclusive = small, poorly fitted or top-dose-only effect; inactive = flat fitted curve, though single readings scatter; cell line not stated here;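 note: potency is the fitted concentration of half-maximal effect; % of control where 0% means no effect; nearly all actives have a fitted effect of over 65% in size; a mitochondrial uncoupler was the plate control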
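Decision-based qHTS: stable cells, 24 h exposure to five compound concentrations, CCCP as control. Fixed cells stained for PINK1 plus nuclear, mitochondrial and cell markers, cytometer read.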
Six1-Eya2 blk: qHTS Assay for Inhibitors of the Six1/Eya2 Interaction; Homeobox protein SIX1 (Homo sapiens) + Protein phosphatase EYA2 (Homo sapiens), …; AlphaScreen GST-Six1/His-Eya2 binding, biochemical; hits give low values; control for the full effect not named in the record; activity change, % (concentration not given with the values); 360,000 tested, 0.56% active; AID 651725, 2012; in the data active = activity change below about -65%; inconclusive = about -30% to -65%; inactive = above about -30%; note: % is set by controls: 0 for no effect and ±100 for the full control effect
Target sequence (O00167 whole entry, looked up): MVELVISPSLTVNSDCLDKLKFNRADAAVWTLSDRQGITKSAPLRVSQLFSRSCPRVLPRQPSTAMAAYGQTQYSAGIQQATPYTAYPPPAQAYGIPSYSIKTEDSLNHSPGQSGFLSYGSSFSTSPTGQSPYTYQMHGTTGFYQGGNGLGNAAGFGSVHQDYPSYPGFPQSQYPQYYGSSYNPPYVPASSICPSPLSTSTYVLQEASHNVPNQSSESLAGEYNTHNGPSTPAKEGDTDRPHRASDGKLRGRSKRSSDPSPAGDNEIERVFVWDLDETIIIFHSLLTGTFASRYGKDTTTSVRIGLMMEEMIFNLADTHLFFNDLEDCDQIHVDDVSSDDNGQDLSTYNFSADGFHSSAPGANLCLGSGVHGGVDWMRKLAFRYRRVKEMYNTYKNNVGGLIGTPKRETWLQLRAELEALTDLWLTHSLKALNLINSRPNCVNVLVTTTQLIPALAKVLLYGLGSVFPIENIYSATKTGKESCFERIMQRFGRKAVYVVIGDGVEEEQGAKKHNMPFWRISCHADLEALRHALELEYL
Target sequence (Q15475 whole entry, looked up): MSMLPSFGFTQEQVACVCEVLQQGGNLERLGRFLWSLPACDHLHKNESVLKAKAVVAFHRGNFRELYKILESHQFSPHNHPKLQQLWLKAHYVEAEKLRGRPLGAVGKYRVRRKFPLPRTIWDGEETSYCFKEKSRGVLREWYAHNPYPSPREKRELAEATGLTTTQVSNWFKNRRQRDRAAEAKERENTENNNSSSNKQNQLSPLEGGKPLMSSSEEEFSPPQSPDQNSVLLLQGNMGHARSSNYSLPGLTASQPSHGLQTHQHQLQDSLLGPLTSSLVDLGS
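Compounds are tested against tagged Six1 and Eya2 proteins bridged by glutathione donor and nickel acceptor beads; after a one-hour incubation at 37 °C without light, AlphaScreen emission is recorded.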
D2 ag: Beta-Arrestin HTS for Positive Allosteric Modulators of the Human D2 Dopamine Receptor: Agonists; D(2) dopamine receptor (Homo sapiens), P14416; DiscoveRx PathHunter D2 beta-arrestin, luminescence, 90 min; 100% = 57 uM dopamine signal; activation, % (no concentration beside the values); 360,000 tested, 0.084% active; in the data active = activation above about 40%; inconclusive = about 15% to 40%; inactive = below about 15%; note: compound concentration not given in the record; the text of the record calls up to 30% inactive
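Agonist mode: compounds alone added to overnight-plated D2 PathHunter cells for 90 min at 37 C, with 57 uM final dopamine (EC100) defining full response. Beta-arrestin recruitment detected by chemiluminescent reagent, read after 1 h at ambient temperature.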
Numbers without * were called inactive; ? = inconclusive; . = no result given; & = joins results of further samples; [ ] = another dose, or the depositor's remark.

SMILES | CtBP-E1A blk | D2 potentiator | TRPML1 agonist | PINK1 modulator | Six1-Eya2 blk | D2 ag
Cn1c(=O)c2c(-c3ccccc3F)c3c(nc2n(C)c1=O)-c1ccccc1C3O (configuration not stated) | -4 | -6 | -1.1 | 0.2% | -10 | -4.0
CCOc1ccc(-c2nc(S(=O)(=O)c3ccccc3)c(NC)o2)cc1 | 4 | 1 | 0.3 | 4.4% | -2 | -8.7
CCc1c(C(=O)NC2CCCCC2)[nH]c(C)c1C(C)=O | -1 | -11 | 0.2 | 15%[38.3 µM] | -1 | -0.6
COc1ccc(-c2nc(CS(=O)CC(=O)N3CCc4ccccc4C3)c(C)o2)cc1 (configuration not stated) | -6 | -3 | 1.2 | -1.1% | -5 | -2.6
Cc1noc(NS(=O)(=O)c2ccc(NC(=O)c3ccoc3C)cc2)c1C | -7 | 15 | 0.4 | -0.8% | -5 | 0.6
Cn1c(O)c(N=NC(=O)CNC(=O)/C=C/c2ccccc2)c2ccccc21 | -17 | -31 | 0.3 | -2.2% | -9 | -6.2
Cn1c(-c2sc3cc(C(F)(F)F)cnc3c2-c2ccccc2)n[nH]c1=S | 0 | -11 | -0.2 | -1.2% | 1 | 2.7
CCOC(=O)N1CCN(Cc2nc3cc(NC(=O)C(C)C)ccc3n2C)CC1 | 11 | -6 | -1.3 | 2.6% | 1 | -0.3
CCc1cc(=O)oc2cc(OCC(=O)NCCCN3CCOCC3)c(Cl)cc12 | ? | -25 | -0.4 | -0.1% | ? | -3.8
COC(=O)c1c(NC(=O)CSc2nnnn2C)sc(C)c1C | -8 | -14 | 1.6 | 16%[38.3 µM] | -6 | 0.3
O=c1cc(O)c2c(=O)n(C3CCCCC3)c3ccccc3c2o1 | -3 | -4 | -0.7 | 4.5%[38.3 µM] | -3 | -1.0
O=C(COC(=O)C1CC1)NCc1ccccc1Cl | 4 | 8 | 0.8 | -1.6% | 1 | -1.6
CCC1(c2ccccc2)NC(=O)N(CC(=O)Nc2ccc(N3CCCC3)cc2C)C1=O (configuration not stated) | -15 | 14 | 0.4 | 3.1% | -17 | -1.5
O=C(NCCc1ccccc1)c1cccc2c(-c3cccnc3)coc12 | 0 | -20 | -0.8 | -0.3% | -11 | 3.0
COC(=O)c1sc(S(=O)(=O)N2CCC(C(N)=O)CC2)c(C(=O)OC)c1C | 4 | ? | -0.7 | -1.8% | -3 | -1.7
O=C(NCC(=O)N1CCCCC1)c1ccc2ccccc2c1 | -10 | -10 | -0.6 | -0.9% | 0 | -1.4
O=C(Cc1ccccc1)c1c[nH]c(C(=O)NC2CCCC2)c1 | 6 | -4 | 0.8 | 1.2% | 4 | -3.3
CN(CC(=O)Nc1c(F)cccc1F)Cc1cccs1 | 5 | 1 | -0.5 | -0.2% | 4 | 5.1
Cc1ccc(NC(=S)N/N=C/c2c(Cl)cccc2Cl)c(C)c1 | -21 | -31 | 1.8 | 4.1% | -20 | -5.9
CC(C)(C)OC(=O)N1CC2(CCCCC2)CC1Cc1ccc(C(F)(F)F)cc1 (configuration not stated) | 2 | 5 | -0.3 | 4.3% | 0 | -8.7
CCOC(=O)C(=CNc1cc(OC)ccc1-n1cccc1)C(=O)OCC | -4 | 14 | 4.4 | 15% | -8 | -1.9
Cc1ccc(S(=O)(=O)N2C[C@H]3C(=O)C[C@@H](c4ccccc4F)N(S(=O)(=O)c4ccc(C)cc4)[C@H]3C[C@H]2c2ccccc2F)cc1 | -27 | -7 | 0.3 | -0.3% | 4 | 5.3
CCc1nnc(NC(=O)CSc2nnc(C)c(=O)n2N)s1 | 2 | -4 | -0.4 | 1.9% | -2 | -4.0
COc1ccc(S(=O)(=O)N/N=C(/C)c2ccco2)cc1 | -16 | -2 | 0.0 | -1.0% | -3 | -1.5
Cc1ccc(CNC(=O)N[C@@H](Cc2ccccc2)C(=O)O)cc1 | -1 | 4 | -0.5 | 1.1% | -24 | -8.6
O=S(=O)(c1ccc(-c2csc(-c3cccnc3)n2)cc1)N1CCCC1 | -25 | 0 | 0.1 | 3.8% | -24 | -1.0
CCC(C)/C(C)=N/NC(=O)c1cn(-c2ccccc2)nc1-c1ccccc1 (configuration not stated) | 4 | -27 | 0.7 | 0.1% | 3 | -0.9
Cc1ccccc1NC(=O)COC(=O)CN1C(=O)NC(C)(C)C1=O | 3 | -9 | -0.4 | 0.6% | -2 | -2.1
CCn1c(=S)[nH]c2cc(S(=O)(=O)N3CCCCC3)ccc21 | -8 | 9 | -0.3 | . | -7 | -3.4
O=C(O)C(Cc1ccccc1)NC(=O)C(Cc1ccccc1)NC(=O)C12CC3CC(CC(C3)C1)C2 (configuration not stated) | 4 | 4 | -0.1 | 1.8% | 2 | -1.9
CN(C)c1ccc(C=NN2CCCCCC2)cc1 | -11 | 2 | -0.4 | 2.8% | -9 | 0.6
COc1ccc(S(=O)(=O)N2CCCCCC2)cc1NC(=O)c1ccccc1F | -19 | -3 | 1.5 | -0.5% | -7 | -4.5
CC(C)OC(=O)CN1CCN(c2ccc(Cl)cc2)CC1 | . | -8 | 0.3 | -0.5% | 7 | -0.6
NS(=O)(=O)c1ccc(NCc2cc(Cl)ccc2OCc2ccccc2F)cc1 | -7 | 8 | 2.4 | ? | -9 | 4.2
CCCCCN(C(=O)NC(=O)Nc1ccccc1C)S(=O)(=O)c1ccccc1 | 6 | 0 | 0.1 | 2.0% | 12 | -4.8
COCCNC(=O)C1(C)CCCN(C(=O)c2cc(C)oc2C)C1 (configuration not stated) | 4 | -12 | 0.4 | 0.9% | 4 | -3.1
COC(=O)CSC1=C(C#N)C(c2cccc(OC)c2)CC(=O)N1 (configuration not stated) | 1 | -6 | -1.0 | 11% | -3 | -1.3
COCCN(CC(=O)NC1CCCCC1)C(=O)CCCC(=O)Nc1ccccn1 | 15 | -1 | -0.9 | -0.6% | 5 | -2.7
CS(=O)(=O)N(CC(=O)N1CCOCC1)c1ccc(Cl)cc1 | -2 | -5 | 0.2 | 0.8% | 5 | -3.0
Cn1c(=O)[nH]c(=O)c2c1nc(N1CCCCCC1)n2CCSc1nc2ccccc2[nH]1 | 1 | -11 | 0.1 | 0.4% | -5 | -1.1
CCOc1cc(/C=N/NC(=O)c2ccc(CSc3nncn3C)cc2)ccc1OCC(=O)N1CCOCC1 | 6 | -35 | 1.0 | -0.6% | 2 | 3.1
COc1cc(C(C)=O)cc(OC)c1O | 1 | -20 | . | 0.1%&1.4% | 2 | -1.2
CCCNC(=O)C(Cc1ccc(OC)cc1)NC(=O)c1ccc(C#N)cc1 (configuration not stated) | -10 | -8 | -0.6 | 0.8% | 0 | -3.3
O=C(O)[C@H]1CCCN1C(=O)c1ccccc1N1C(=O)[C@@H]2Cc3c([nH]c4ccccc34)C(c3cccc(Cl)c3)N2C1=O (some centres not stated) | 2 | 7 | . | 1.1% | 1 | 1.7
COCOCCn1cc(CN2CCS(=O)(=O)N(Cc3ccc(-c4ccc(OC)cc4)cc3)C(C(C)C)C2=O)nn1 (configuration not stated) | -12 | -5 | -0.5 | -1.9% | 2 | -5.3

Structural class: those above with a thiophene ring, fused or not
SMILES | CtBP-E1A blk | D2 potentiator | TRPML1 agonist | PINK1 modulator | Six1-Eya2 blk | D2 ag
Cn1c(-c2sc3cc(C(F)(F)F)cnc3c2-c2ccccc2)n[nH]c1=S | 0 | -11 | -0.2 | -1.2% | 1 | 2.7
COC(=O)c1c(NC(=O)CSc2nnnn2C)sc(C)c1C | -8 | -14 | 1.6 | 16%[38.3 µM] | -6 | 0.3
COC(=O)c1sc(S(=O)(=O)N2CCC(C(N)=O)CC2)c(C(=O)OC)c1C | 4 | ? | -0.7 | -1.8% | -3 | -1.7
CN(CC(=O)Nc1c(F)cccc1F)Cc1cccs1 | 5 | 1 | -0.5 | -0.2% | 4 | 5.1

(continued)
SMILES | CtBP-E1A blk | D2 potentiator | TRPML1 agonist | PINK1 modulator | Six1-Eya2 blk | D2 ag
COCCNC(=O)C1(C)CCCN(CCC(=O)c2ccc(Br)cc2)C1 (configuration not stated) | 3 | -5 | -0.5 | 1.5% | 6 | -2.7
CC[n+]1c(/C=C/Nc2ccccc2)sc2ccccc21 | -7 | -20 | 0.1 | 2.5% | -2 | -4.5
COc1ccc(-c2nc(CS(=O)(=O)CC(=O)NCc3ccc(F)cc3)c(C)o2)cc1 | 0 | 0 | -1.3 | 3.9% | 0 | -0.7
Cc1cn([C@H]2C[C@H](O)[C@@H](CCC(=O)NCC3CCCO3)O2)c(=O)[nH]c1=O (some centres not stated) | 30 | 1 | -0.1 | 3.2% | 28 | 7.3
CCCCC(=O)Nc1nnnn1CCC | -8 | -7 | -0.5 | -0.6% | 1 | -6.4
C[C@H]1CN([C@@H](C)CO)C(=O)CCCn2nncc2CO[C@@H]1CN(C)Cc1cccc2c1OCCCO2 | 4 | 1 | -0.1 | 1.0% | 0 | -10
Cc1ccc(Cl)cc1OCC(=O)NCCOC(=O)Nc1sc(=S)n(C)c1C | 0 | -5 | -1.0 | 2.6% | 4 | 0.7
COC(=O)c1cn(-c2ccccc2)nc1-c1ccncc1 | 0 | -6 | 0.1 | -0.6% | 2 | -2.7
OCCCCNCc1ccc(OCc2ccccc2)cc1 | 0 | -11 | 0.6 | -0.4% | -2 | -2.4
CC(SC1CCCC1)C(=O)NC(C)(C#N)C(C)C (configuration not stated) | 4 | -6 | -0.5 | 0.6% | 2 | -3.6
CC1(C)CC(NS(=O)(=O)c2ccc3ccccc3c2)CC(C)(C)N1 | 0 | -4 | -0.3 | -0.7% | -21 | -2.5
Cc1ccc(C(=O)NCc2ccccc2)c(F)c1F | 4 | -9 | 1.2 | 3.0% | 2 | -0.5
CCOC(=O)N1CCN(c2c(NCCCN3CCCC(C)C3)c(=O)c2=O)CC1 (configuration not stated) | -9 | -8 | -0.9 | -0.3% | 6 | -4.9
CCN(CC)S(=O)(=O)c1ccc2c(c1)N(CC(=O)N1CCCC1)C(=O)CO2 | -5 | -7 | 0.2 | 1.6% | 7 | -1.7
COc1ccc(OC)c(CNC(=O)CCC(=O)N2Cc3cccc(OC)c3Oc3ncccc32)c1 | . | -6 | 4.6 | -0.1% | 3 | -4.0
CCCCCCSC1=C(C#N)C(c2ccc(O)cc2)CC(=O)N1 (configuration not stated) | 5 | -8 | 2.2 | 4.0% | 4 | 2.6
CCN(CC)c1ccc(S(=O)(=O)N2CCOCC2)cc1NC(=O)c1cc(=O)c2ccccc2o1 | . | 11 | 2.4 | 3.9% | 3 | 8.3
